MT1-MMP act inh: blocks activation of human MT1-MMP. P50281. HT1080 RFP-PRO-GFP cells, GFP/RFP ratio fluorescence, overnight; percent of plate control window, DMSO zero. GFP/RFP ratio change, % at 20 µM. 360,000 tested, 0.061% active;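 active means GFP/RFP ratio change of at least 30% with cell ATP level not reduced by more than half and red fluorescence within 50% of control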; further: strong numbers were not always called active
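Material: RFP-PRO-GFP reporter HT1080 cells. Dosing: single-point 20 µM compound, 1% DMSO. Controls: DMSO and RFP-L50D-GFP cell wells. Timing: cells overnight before dosing, compound overnight, 37 °C, 5% CO2. Measure: GFP/RFP fluorescence ratio.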
PABP FP inh: PABP-poly(A) binding inhibition | P11940 | PABP-poly(A) RNA binding, fluorescence polarization | inhibition, % at 35 µM | 290,000 tested, 1% active | AID 2014;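 active means 50% or more with normal probe brightness, or confirmed in later tests; about a fifth of its hits are not listed in these tables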;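 further: calls also rest on retests at 20 µM and on dose response follow-up; controls were probe without protein and protein plus probe with vehicle; some compounds called inactive have numbers as strong as hits; many hits fall short of the cut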
eIF4H FP inh: inhibitors of RNA binding by human eIF4H | Q15056 | eIF4H fluorescence polarization binding assay | inhibition, % at 35 µM | 290,000 tested, 0.94% active;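 active means 50% or more with normal probe brightness, or confirmed in later tests; about a fifth of its hits are not listed in these tables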;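 further: calls also rest on retests at 20 µM and on dose response follow-up; 0% = protein and probe with vehicle and 100% = probe without protein; strong numbers were not always called active; many hits fall short of the cut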
CSC inhib: blocks cancer stem cells. AID 2717. 300,000 tested, 1.1% active. inhibition, % at 7.5 µM. cancer stem cell-like cells viability, luminescence;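 active means mean at 75% or more and at least half the replicates too; tested in HMLE shEcad cells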;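 further: 0% = median of negative and 100% = median of positive control wells; the first replicate is given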
Rce1 inh: inhibitors of yeast Ras-converting enzyme; yeast membranes, quenched prenylated peptide cleavage fluorescence; calls only; AID 2563; Q03530; 290,000 tested, 0.27% active;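 active means fall in fluorescence gain of 50% or more versus controls, with final raw signal at or below 3038400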;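 further: plate controls were neutral control wells for no effect and wells lacking membranes for full effect; tested at 10 µM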
Target sequence (Q03530 whole entry, looked up): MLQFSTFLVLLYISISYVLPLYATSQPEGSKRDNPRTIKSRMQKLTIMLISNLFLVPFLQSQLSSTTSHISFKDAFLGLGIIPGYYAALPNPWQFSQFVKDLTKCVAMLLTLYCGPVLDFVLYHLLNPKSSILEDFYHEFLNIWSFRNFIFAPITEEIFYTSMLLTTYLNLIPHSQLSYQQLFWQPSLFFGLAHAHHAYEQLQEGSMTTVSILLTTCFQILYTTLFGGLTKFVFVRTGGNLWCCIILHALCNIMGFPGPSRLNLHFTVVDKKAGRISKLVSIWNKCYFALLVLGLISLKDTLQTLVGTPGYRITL
HIV Env fusion: HIV envelope-mediated fusion inhibition | HeLa-JRFL Env/CEM21 cell fusion, luciferase | inhibition, % at 12.3 µM | 360,000 tested, 1.1% active | AID 651610;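 active means mean replicate inhibition score of at least 50 and every replicate individually at or above 50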;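 further: 0% = plate neutral controls and 100% = maraviroc near 300 nM; one replicate is shown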
UUG fidelity: modulators of start codon recognition fidelity in yeast. activity score, % at 18.7 µM. S. cerevisiae UUG-firefly luciferase reporter, luminescence/redox ratio. 350,000 tested, 0.13% active;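 active means replicate mean at a twofold rise or more, about +100% in these data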;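 further: firefly luciferase made from a UUG start codon reports start codon fidelity; reporter light over untreated wells divided by growth signal over untreated wells; some hits fall short of that in this replicate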
MT1-MMP act inh RFP: second read-out of MT1-MMP act inh, no call of its own (marks repeat the call); RFP signal change, %; measured here: RFP expression control read;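 0 = vehicle wells; hits needed this value within 50% of zero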
* marks the source's active call; other numbers are inactive results; i = inactive; nt = no result given.

SMILES | MT1-MMP act inh | MT1-MMP act inh RFP | PABP FP inh | eIF4H FP inh | CSC inhib | Rce1 inh | HIV Env fusion | UUG fidelity
COc1ccccc1CC(=O)NCCc1ccc(S(N)(=O)=O)cc1 | -3 | -6 | -1 | -6 | 1 | i | -12 | -24
CCC(=O)Nc1nnc(S(=O)(=O)N2CCc3ccccc32)s1 | -3 | -3 | -20 | -6 | 1 | i | -32 | -2
CC(=O)Nc1ccccc1C(F)(F)F | 5 | 4 | -2 | -12 | -7 | i | -2 | -9
COC(=O)c1ccc(C(=O)OCc2nc3cc4ccccc4cc3[nH]2)cc1 | 4 | 8 | -6 | 6 | -12 | i | nt | -18
Cc1ccn2c(NC3CCCCC3)c(C(C)C)nc2c1 | -4 | 2 | -5 | -12 | -10 | i | -16 | -8
CC(=O)COC(=O)CNC(=O)c1ccc(Br)cc1 | 4 | 8 | 8 | 8 | -8 | i | 11 | -5
CSCCC1NC(=O)N(CC(=O)Nc2cccc(S(=O)(=O)N3CCCCCC3)c2)C1=O (stereo not given) | 6 | -11 | nt | nt | -16 | nt | 10 | -6
COc1ccccc1Oc1ncnc2sccc12 | 5 | 1 | -11 | -5 | -9 | i | -2 | nt
O=C(CSc1nnc(-c2ccccc2O)o1)NC1CCCCC1 | 0 | 1 | 8 | 7 | -3 | i | -6 | -16
COc1ccc(OCCCC(=O)Nc2cccc(C(C)=O)c2)cc1 | -4 | -3 | 12 | -2 | 10 | i | 16 | 0
COc1ccc(CNC(=O)Nc2ccc([N+](=O)[O-])cc2)cc1 | -5 | -25 | nt | nt | -1 | i | -19 | 0
COc1ccc(NC2CCCN(C(=O)Cn3ccc(C)n3)C2)cc1OC (stereo not given) | -1 | 2 | 9 | -7 | -10 | i | 1 | -19

Reprinted from the part before: 3 compounds, then new ones.
SMILES | MT1-MMP act inh | MT1-MMP act inh RFP | PABP FP inh | eIF4H FP inh | CSC inhib | Rce1 inh | HIV Env fusion | UUG fidelity
COc1ccc(OCCCC(=O)Nc2cccc(C(C)=O)c2)cc1 | -4 | -3 | 12 | -2 | 10 | i | 16 | 0
COc1ccc(CNC(=O)Nc2ccc([N+](=O)[O-])cc2)cc1 | -5 | -25 | nt | nt | -1 | i | -19 | 0
COc1ccc(NC2CCCN(C(=O)Cn3ccc(C)n3)C2)cc1OC (stereo not given) | -1 | 2 | 9 | -7 | -10 | i | 1 | -19
Cc1ccnc(NC(=O)CCNC(=O)c2ccc(Br)cc2)c1 | 2 | 5 | nt | nt | nt | nt | 57* | -15
COc1cc2oc3ccccc3c2cc1N(CC(=O)N1CCCCC1)S(=O)(=O)c1ccc(C)cc1 | -24 | -21 | 11 | -19 | 10 | i | nt | -19
CCN1CCC2(CCN(Cc3cn[nH]c3-c3ccc(OC)c(F)c3)C2)C1 (stereo not given) | 1 | 6 | 18 | 3 | 2 | nt | -69 | nt
CCOc1ccc2[nH]c(=O)c(C(c3nnnn3CCOC)N3CCOCC3)cc2c1 (stereo not given) | 6 | 5 | -6 | -12 | -11 | i | nt | -15
CSCC[C@H](N)C(=O)NCC1CCC(C(=O)Nc2ccc3c(c2)OCO3)CC1 (stereo not given in full) | -1 | 1 | 1 | 26 | -4 | nt | nt | -10
CCOC(=O)COc1ccc(S(=O)(=O)NCc2ccco2)cc1 | 1 | 5 | 0 | 10 | -6 | i | nt | -21
Cc1noc(C)c1CN(C(=S)NC1CC2CCC1C2)c1ccccc1 (stereo not given) | 1 | -3 | -3 | -1 | 10 | nt | 12 | nt
CN1C(=O)C2CN(CCc3ccccc3)CNC2N(C)C1=O (stereo not given) | -4 | 0 | 4 | -16 | 1 | i | -27 | -7
CC(C)Oc1ccc(S(=O)(=O)N2CCOCC2)cc1NC(=O)Cc1cccs1 | -1 | 1 | nt | nt | -10 | i | 10 | nt
Cc1c(C(c2cc(O)ccc2O)c2c(C)n(C)n(-c3ccccc3)c2=O)c(=O)n(-c2ccccc2)n1C | 0 | 4 | nt | nt | nt | nt | -16 | -26
COc1ccc2[nH]cc(CCn3ccc(O)c(C/C=C/c4ccccc4)c3=O)c2c1 | 7 | -3 | 4 | -2 | 19 | i | -12 | nt
COc1ccccc1C(=O)COC(=O)/C(=C/c1ccccc1)NC(C)=O | 0 | -3 | nt | nt | -2 | i | nt | nt

Sorted by the number under MT1-MMP act inh (rising): 3 from the list above.
Structure | MT1-MMP act inh | MT1-MMP act inh RFP | Rce1 inh | HIV Env fusion | UUG fidelity
CSCC[C@H](N)C(=O)NCC1CCC(C(=O)Nc2ccc3c(c2)OCO3)CC1 (stereo not given in full) | -1 | 1 | nt | nt | -10
Cc1noc(C)c1CN(C(=S)NC1CC2CCC1C2)c1ccccc1 (stereo not given) | 1 | -3 | nt | 12 | nt
Cc1ccnc(NC(=O)CCNC(=O)c2ccc(Br)cc2)c1 | 2 | 5 | nt | 57* | -15

The results go on:
SMILES | MT1-MMP act inh | MT1-MMP act inh RFP | PABP FP inh | eIF4H FP inh | CSC inhib | Rce1 inh | HIV Env fusion | UUG fidelity
O=C(COC(=O)c1cccnc1)c1ccc(Cl)c(Cl)c1 | 1 | 3 | -5 | -11 | nt | i | nt | nt
c1ccc(-n2nnnc2NC2CCCCC2)cc1 | 8 | -5 | 16 | 0 | 5 | i | nt | -12
C=CCC1CCCCC12NC(=O)N(c1ccccc1)N2 (stereo not given) | -3 | 0 | 5 | -6 | 19 | i | 19 | 14
CN(C)S(=O)(=O)c1cccc(NC(=O)c2ccc(S(=O)(=O)N3CCCC3)cc2)c1 | 4 | -12 | nt | nt | -16 | i | 5 | nt
CC(=O)c1ccc(NC(=O)CCc2nc3sc4c(c3c(=O)[nH]2)CCCC4)cc1 | -4 | 1 | nt | nt | 0 | i | nt | nt
COc1ccc(NC(=O)CN2CCC(C(N)=O)CC2)cc1 | 10 | 9 | 4 | 1 | -1 | i | nt | -3
CC(=O)c1cccc(S(=O)(=O)N2CCN(c3ccccc3F)CC2)c1 | 7 | -12 | 11 | -5 | -8 | i | -7 | nt
O=C(Cc1cn2ccsc2n1)Nc1cccc2cnccc12 | -1 | 0 | 9 | 4 | -14 | i | nt | -14
COc1ccc2c([N+](=O)[O-])c(N3CCCC3)[nH]c2c1 | 2 | 4 | 11 | -12 | -1 | i | -6 | -25
O=C(Nc1cccc2ccccc12)/C(=C/c1cccc([N+](=O)[O-])c1)NC(=O)c1cccs1 | 9 | -1 | -4 | -7 | -9 | i | -40 | -15
COc1ccc(OC)c(NC(=O)CSc2nc3ccccc3c(=O)n2CCNC(C)=O)c1 | 10 | 2 | 25 | 4 | 14 | i | 26 | -14
Cc1ccc(-c2nn(-c3ccccn3)c(=O)c3ccccc23)cc1C | 3 | 3 | -10 | -7 | 8 | i | -11 | -9
Cc1ccc(OCC(=O)NNC(=O)C2CCC2)cc1C | -3 | 1 | nt | nt | nt | nt | 3 | -16
CC(C)c1ccc(C(=O)NCCCNC(=O)c2cnccn2)cc1 | 5 | 3 | 1 | 4 | nt | i | 1 | -11
CCCc1c(C)c(C#N)c2nc3ccccc3n2c1NCCCN1CCOCC1 | 2 | -1 | -8 | -4 | -7 | i | -35 | -11
CCOC(=O)c1cnc2ccc(OCC)cc2c1N1CCN(c2ccccc2OC)CC1 | -13 | -15 | -6 | 2 | 34 | i | nt | 16
CC1(C2CC2)NC(=O)N(CC(=O)Nc2ccccc2-c2ccccc2)C1=O (stereo not given) | 0 | 3 | 18 | 3 | 15 | i | 6 | nt
COc1ccccc1N1CCN(C(=O)c2cc(S(=O)(=O)N3CCOCC3)ccc2C)CC1 | 1 | -1 | nt | nt | nt | nt | -9 | 4
COc1cccc(SCC2CSc3nc4ccccc4c(=O)n32)c1 (stereo not given) | -2 | -4 | 4 | 4 | -1 | i | 2 | nt
CC1(C)Cc2cccc(OCC(=O)N3CCN(c4ccccc4)CC3)c2O1 | 0 | 0 | -7 | -10 | -15 | i | nt | nt
CCOC(=O)CN(C(=O)CSc1nnnn1C)c1ccccc1 | -1 | 1 | nt | nt | -16 | nt | 71* | 2
O=C(Nc1cccc(F)c1)c1ccc2c(c1)OCO2 | 0 | -4 | 0 | -9 | nt | i | nt | -20
CC(=O)c1cccc(S(=O)(=O)N2CCC(c3nc4ccccc4[nH]3)CC2)c1 | -7 | -2 | 15 | -9 | 10 | i | -5 | -13
c1ccc(-c2nnc(CSc3nc4ccccc4[nH]3)o2)cc1 | 6 | 0 | -5 | -5 | -2 | i | -20 | -24
CCOc1cc(/C=N\n2nnnc2N)ccc1O | 4 | 1 | -10 | -1 | -2 | i | 9 | -13
CCN1CCN(CCCNC(=O)c2ccc(NC(=O)C3=CSCCO3)cc2)CC1 | -7 | -2 | -1 | 6 | -18 | i | -25 | -21
Cc1ccc(NC(=O)Nc2ccccc2C(=O)NCc2ccccc2)cc1 | 0 | -2 | -4 | 0 | 2 | i | nt | -6
COc1ccccc1CNc1nc2nc(C)cc(=O)n2[nH]1 | -4 | 3 | 0 | 0 | 3 | i | nt | -11
Cc1ccc(NC(=O)c2oc3ccc(S(=O)(=O)N4CCOCC4)cc3c2C)c(C)c1 | -2 | 3 | 1 | -5 | 2 | i | 0 | -5
CCC(=O)N1c2ccc(S(=O)(=O)NCCc3ccccc3)cc2CC1C (stereo not given) | 3 | 1 | 2 | -1 | -7 | i | 2 | 21
CSCCC(NC(=O)CCC(=O)OCC(=O)[C@@]1(O)CCC2[C@@H]3CCC4=CC(=O)C=C[C@]4(C)C3[C@@H](O)C[C@@]21C)C(=O)O (stereo not given in full) | 1 | 5 | 7 | -9 | -4 | i | -59 | -11
O=C(CSC1=NS(=O)(=O)c2cc(Cl)ccc2N1)Nc1cccc(F)c1 | -1 | -4 | nt | nt | -9 | i | -21 | -22
CC1(C(=O)NS(=O)(=O)c2ccccc2Cl)CCN1C(=O)c1ccco1 (stereo not given) | -2 | 2 | nt | nt | nt | nt | -7 | -10
COc1ccc(N(C)S(=O)(=O)c2ccc3c(c2)CCC(=O)N3)cc1 | -4 | -5 | 6 | 3 | -4 | i | nt | -8
CC1=C(C(=O)Nc2ccccc2)C(c2ccc(C)o2)n2ncnc2N1 (stereo not given) | 2 | 3 | -10 | -4 | -13 | i | nt | -12
CCOC(=O)c1c(NC(=O)c2ccco2)sc2c1CCCC2 | -4 | -1 | 1 | 0 | 7 | i | -43 | -3
CCN(c1ccccc1)S(=O)(=O)c1ccc(Oc2ccc(-n3ccnc3)cc2)nc1 | -15 | -11 | nt | nt | -6 | i | nt | -7
O=C(CSc1nc(-c2ccc(F)cc2)cc(C(F)(F)F)n1)NCc1ccco1 | -3 | 2 | -6 | -13 | 7 | i | -31 | -33
CCCC(NC(=O)c1ccc(Br)o1)c1nc2ccccc2[nH]1 (stereo not given) | -4 | 1 | nt | nt | 4 | nt | -6 | -10
CC(=O)Nc1ccc(S(=O)(=O)N(Cc2cc3ccc(C)cc3[nH]c2=O)CC2CCCO2)cc1 (stereo not given) | 1 | 2 | 5 | -4 | -4 | i | 5 | -9
CN1CCN(C(=O)C23CC4CC(C2)CC(c2ccccc2)(C4)C3)CC1 | -4 | -4 | 3 | -8 | 40 | i | -5 | -6
CCCCCCSc1ccc([C@H]2N[C@@](Cc3ccccc3)(C(=O)OC)[C@H]3C(=O)N(C)C(=O)[C@@H]23)cc1OC | -3 | -1 | nt | nt | 18 | i | -51 | -4
COCCNC(=O)CSc1nc2cc(OC)c(OC)cc2c(=O)n1Cc1ccc(OC)cc1 | 7 | 3 | 3 | 0 | -5 | i | -31 | -20
O=C(Cc1nc2ccccc2s1)c1ccc(O)cc1O | nt | nt | 8 | 19 | 17 | i | nt | nt
Cc1ccc(OCC(=O)N2CCCCC2C)c([N+](=O)[O-])n1 (stereo not given) | -1 | 3 | nt | nt | -13 | nt | 8 | -7
CCOc1ccc2nc(NCCNC(=O)c3cc(OC)c(OC)c(OC)c3)c(C#N)cc2c1 | 1 | 2 | 16 | 10 | -6 | i | 5 | nt
CN(C)CCN1CCN(C2CN(Cc3ccc([N+](=O)[O-])cc3)S(=O)(=O)C2)CC1 (stereo not given) | 3 | 4 | nt | nt | nt | nt | -56 | -14
COc1ccc(-c2cnc3nc(/N=C/N(C)C)nn3c2/N=C/N(C)C)cc1 | -1 | 5 | 5 | -9 | 9 | i | 2 | -15
